Bioassay records (PubChem BioAssay)
A1 inh: inhibitors of the anti-apoptotic protein A1, read as caspase activation; MEF A1-2A-BIM cells, Caspase-Glo 3/7 luminescence, 3 h; percent of clofoctol response, vehicle zero; caspase activation, % (test concentration not listed); 330,000 compounds, 0.066% hits;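 active = over half of replicate activation scores above 10%, or exactly half above 10 with the replicate mean above 10; inconclusive = replicate mean below 10 yet half the replicates above 10; inactive = over half of replicates below 10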;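 also: wells of about 30 µL received 50 nL stock; many hits fall short of the cut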
HNF4A DNA FP: change in binding of human HNF4 alpha to DNA; 360,000 compounds, 0.3% hits; P41235; HNF4a-FITC DNA binding, fluorescence polarization, 1 h; activity change, % at 10 µM; AID 1224865; in the data active = activity change above about 30%, passing the limit was not always enough;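 also: controls were the assay level and a saturating level of protein; the project sought stronger binding though the title names inhibitors; some compounds called inactive have numbers as strong as hits; positive values seem to mean higher polarization but the record does not say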
B2AR ag: activates human beta-2 adrenergic receptor causing internalization; response, % (test concentration not listed); AID 504454; P07550; Am2.2-beta2AR cells, FAP receptor internalization, flow cytometry; reference of the scale not given here; 340,000 compounds, 0.43% hits;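 active = response above a set limit, near 3 SD of response in nonfluorescent compounds, cut at about 42% in these data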;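 also: stock transfer was 100 nL into about 11 µL; a reference agonist was the positive control; negative values mostly stem from fluorescent compounds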
Target sequence (P07550 whole entry, looked up): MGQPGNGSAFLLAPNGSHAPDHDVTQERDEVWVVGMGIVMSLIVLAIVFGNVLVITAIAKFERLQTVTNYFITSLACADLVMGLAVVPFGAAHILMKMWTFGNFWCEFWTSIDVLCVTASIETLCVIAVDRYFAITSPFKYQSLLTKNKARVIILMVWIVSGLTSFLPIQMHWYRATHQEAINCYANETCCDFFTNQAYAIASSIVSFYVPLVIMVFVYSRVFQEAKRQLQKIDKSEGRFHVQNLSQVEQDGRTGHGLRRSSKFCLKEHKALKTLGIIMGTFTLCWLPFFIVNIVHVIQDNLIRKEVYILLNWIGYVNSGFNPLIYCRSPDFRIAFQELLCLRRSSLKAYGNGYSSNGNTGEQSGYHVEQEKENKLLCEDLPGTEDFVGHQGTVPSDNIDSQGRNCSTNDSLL
Vif A3G: inhibitors of Vif binding to APOBEC3G peptide, primary screen, biochemical, TR-FRET, GST-Vif 1-94, biotin-A3G peptide, dose response retest (AID 1117319). inhibition, %; hits with a dose series show IC50 in µM. 260,000 compounds, 0.57% hits. TR-FRET GST-Vif / biotin-A3G peptide binding; higher % means a stronger effect; test concentration not given here; strong numbers were not always called active;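 active = above the screen mean plus three standard deviations and confirmed in dose response; inconclusive = results disagree or hit not tested in dose response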;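 also: Vif residues 1-94 fused to GST binding biotinylated APOBEC3G peptide 110-148; 0% = full assay without inhibitor and 100% = GST in place of GST-Vif; retest series ran down from 100 µM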
UCH37 DUB inh: human UCH37 deubiquitinating enzyme inhibition. Q9Y5K5. purified proteasome/UCH37, Ub-AMC cleavage fluorescence. inhibition, % (concentration not given with the values). 330,000 compounds, 0.33% hits;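 active = mean of two replicates above 20%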;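 also: 0% = compound-free wells with enzyme and 100% = wells lacking proteasome; stock transfer was 100 nL into about 20 µL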
Target sequence (Q9Y5K5 whole entry, looked up): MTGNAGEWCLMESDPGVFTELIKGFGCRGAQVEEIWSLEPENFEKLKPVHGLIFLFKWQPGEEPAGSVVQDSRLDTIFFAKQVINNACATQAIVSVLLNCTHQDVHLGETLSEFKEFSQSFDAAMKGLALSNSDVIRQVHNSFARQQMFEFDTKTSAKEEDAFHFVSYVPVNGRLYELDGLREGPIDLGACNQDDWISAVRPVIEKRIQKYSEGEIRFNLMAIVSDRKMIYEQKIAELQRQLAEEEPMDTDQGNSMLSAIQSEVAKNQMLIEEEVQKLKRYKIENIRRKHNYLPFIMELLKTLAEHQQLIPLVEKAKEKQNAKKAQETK
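Material: Human UCH37 enzyme supplied as purified proteasome complex | Schedule: 30 min preincubation with enzyme, 25 min cleavage at room temperature | Detection: AMC fluorescence 355/460 nm | Measure: % inhibition of Ub-AMC cleavage fluorescence | Controls: Wells without proteasome as full block, compound-free enzyme plus substrate as uninhibited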
Ecoli growth: blocks Escherichia coli growth; OD600 absorbance (test concentration not listed); AID 1053175; 330,000 compounds, 0.21% hits; OD600, 23 h; active compounds read low;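 active = OD600 absorbance below the run mean of sample wells minus 3.6 SD, in any replicate, cut at about 0.56 in these data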;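 also: stock transfer was 300 nL into about 60 µL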
LANA-H2B inh: blocks KSHV LANA binding to histone H2A/H2B. Q9QR71. cell-free LANA-H2A/H2B peptide, fluorescence polarization. inhibition, % (no concentration beside the values). 320,000 compounds, 0.6% hits; in the data active = inhibition mostly above about 10%, no sharp cut-off; inactive = mostly below about 6.7%;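 also: stock transfer was 7.5 nL into about 10 µL; 0% = median of vehicle wells and 100% = median of positive control wells; one replicate is shown; the record names a cut of 25% in any replicate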
The depositor's hits bear a star; ? = inconclusive; / = no result given.

SMILES	A1 inh	HNF4A DNA FP	B2AR ag	Vif A3G	UCH37 DUB inh	Ecoli growth	LANA-H2B inh
CCC(c1nnnn1Cc1ccco1)N(CCN1CCOCC1)Cc1cc2cc(C)ccc2[nH]c1=O (stereo not given)	0.8	3.0	6	17%	0.6	0.75	3.9
O=C(Nc1ccc(C(=O)NCc2ccc(F)cc2)cc1)C1=CSCCO1	0.3	-3.4	-9	/	1.4	0.66	0.2
Cc1cc(OCC(O)CN)ccc1Cl (stereo not given)	0.9	-1.6	6	9%	5.3	0.73	2.9
COCCNC(=S)Nc1cc(S(=O)(=O)N2CCOCC2)ccc1N1CCCCC1	?	3.6	3	-8%	4.8	0.69	1.5
CCn1cc(S(=O)(=O)Nc2cc(C)ccc2F)cn1	-0.6	6.6	-4	-3%	0.5	0.7	-0.6
COc1ccc(N2C(=O)C3CCCN3C2c2cccs2)cc1 (stereo not given)	1.0	0.2	4	-1%	2.8	0.68	-0.4
O=C(C1CCN(S(=O)(=O)c2cccc3nsnc23)CC1)N1CCn2c1nc1ccccc12	1.3	-0.9	11	4%	1.4	0.7	-2.1
CCCCC(=O)NC(c1ccc(OC)c(OC)c1)c1ccc2cccnc2c1O (stereo not given)	/	6.3	16	/	-0.5	0.66	/
Cc1cccc(NC(=O)C2CCCN2/C=C/C(=O)C(F)(F)F)c1C (stereo not given)	1.1	0.1	-3	/	7.1	0.71	0.1
Cc1cc(C)c2sc(NNC(=O)C3COc4ccccc4O3)nc2c1 (stereo not given)	-0.7	1.1	4	/	3.9	0.78	3.7
O=C(COC(=O)c1cnccn1)NCc1ccc2c(c1)OCO2	0.8	-1.1	5	0%	4.4	0.73	-4.5
Cc1cc(NC(=O)CCCn2cc([N+](=O)[O-])cn2)n(Cc2ccc(F)cc2)n1	0.3	0.5	9	5%	-1.2	0.71	1.1
CC(=O)Nc1ccc(NC(=O)c2ccccc2Sc2ccc([N+](=O)[O-])cc2Cl)cc1	-1.4	-1.7	1	/	6.2	0.72	0.2
O=C(NCCc1ccccc1)Oc1ccc(Cl)cc1	-0.1	-0.6	10	/	5.1	0.66	-5.1
Cc1onc(-c2ccccc2)c1C(=O)NC(C)C	0.7	2.2	21	0%	3.4	0.72	-3.9
CN(CCCC1CCCC1)C(=O)c1cc(COc2ccc(F)c(F)c2)on1	0.0	0.6	-3	/	0.1	0.67	1.2
CCOc1ccc2cc(C3CC(c4ccco4)=NN3S(C)(=O)=O)c(Cl)nc2c1 (stereo not given)	0.5	5.3	2	/	-0.3	0.7	-3.4
CCO[C@@H]1OC(C(=O)O)=C[C@H](c2cn(C(C)=O)c3ccccc23)[C@H]1CCCO	0.0	-1.3	-2	/	3.4	/	-1.3
CCCCCCC(O)(c1ccc(OC)cc1)C(CN1CCOCC1)c1ccccc1 (stereo not given)	0.3	1.9	0	1%	8.1	0.66	2.7
Cc1cccc(CCNC(=O)c2cccc(NC3=NC4CS(=O)(=O)CC4S3)c2)c1 (stereo not given)	0.2	5.8	0	/	4.4	0.66	3.6
COCC(C)NCc1ccccc1C (stereo not given)	0.3	-1.3	4	3%	2.4	0.79	-1.2
COC(=O)NC1(C(F)(F)F)C(=O)NC(C)=C1C(=O)OC (stereo not given)	0.9	-5.5	8	0%	3.4	0.74	-3.3
O=C(C(=O)N1CCN(C(=O)c2ccco2)CC1)c1c[nH]c2ccccc12	0.1	-1.1	-1	-4%	3.6	0.68	0.4
Cc1ccc(NC(=O)CCc2ccc(S(=O)(=O)N3CCOCC3)cc2)c(C)c1	0.5	4.5	-2	?	2.0	0.68	-0.6
CCOc1ccc(/C(O)=C2/C(=O)C(=O)N(c3ccccn3)C2c2ccc(Cl)cc2)c(C)c1 (stereo not given)	0.0	0.1	13	-10%	8.6	0.66	5.1
CCC(C)(C(=O)NC1CCCC1)N(C(=O)CNC(C)=O)c1ccc(C)cc1 (stereo not given)	1.3	4.5	-3	-6%	4.7	0.73	-3.9
O=C(NC(CC(=O)N1CCN(c2ccc([N+](=O)[O-])cc2)CC1)c1ccccc1)c1ccccc1Cl (stereo not given)	-0.3	-3.4	3	/	6.2	0.69	2.0
Cc1cc(C)c(S(=O)(=O)/N=C2\C=C(NS(=O)(=O)c3ccccc3)C(=O)c3ccccc32)c(C)c1	0.0	-2.9	3	/	/	/	-2.6
CSc1sc(C(=O)NN)c2c1C1(CCC2)SCCS1	-0.4	-1.6	8	5%	1.0	0.66	-3.7
Cc1sc2ncn(CC(=O)NCCCC(=O)N3CCC(C(N)=O)CC3)c(=O)c2c1C	-0.4	2.2	7	/	1.2	0.69	-0.7
S=c1[nH]nc(-c2ccncc2)n1/N=C/c1cccc2ccccc12	-0.1	/	/	9%	/	/	-1.8
CCCN1CNC(=S)N(c2ccccc2C)C1	0.2	-2.9	3	-5%	1.4	0.68	-0.9
COc1ccc(/C(N)=N/O)c(OC)c1	-0.3	-1.0	9	/	1.0	0.72	-1.8
Cc1nn(-c2ccccc2)c(C)c1CNC(=O)c1ccc(S(=O)(=O)NCc2ccco2)cc1	1.1	-1.5	4	-1%	5.1	0.69	1.5
CC(C)CC1=NN(C(=O)c2ccncc2)C(O)(C(F)(F)F)C1 (stereo not given)	-0.3	-3.1	-3	16%	1.9	0.69	0.1
Cc1cc2ccccc2n1CCNC(=O)c1ccc(S(=O)(=O)N2CCCCC2)cc1	0.2	-2.8	8	-184%	1.8	0.78	2.3
O=C(Cn1cnc2c(cnn2-c2ccccc2)c1=O)NCc1ccccc1	-1.0	-0.9	-8	16%	1.3	0.77	2.2
CCO[C@H]1OC(C(=O)NCc2ccccc2)=C[C@@H](c2ccc(C(F)(F)F)cc2)[C@@H]1CCCO	-0.4	-1.9	2	/	4.1	/	-1.4
Cc1ccc(-n2c(=S)[nH]c3sc4c(c3c2=O)CCC4)cc1	-0.4	1.2	0	-29%	3.8	0.74	5.0
Cc1ccc(C)c2[nH]c(=O)c(C(c3nnnn3C(C)(C)C)N3CC=C(c4ccc(F)cc4)CC3)cc12 (stereo not given)	/	3.9	5	8%	1.7	0.68	/

Reformatted with two lines to a compound: 5 of the compounds above.
Results follow in this order: A1 inh, HNF4A DNA FP, B2AR ag, Vif A3G, UCH37 DUB inh, Ecoli growth, LANA-H2B inh
> Cc1cc2ccccc2n1CCNC(=O)c1ccc(S(=O)(=O)N2CCCCC2)cc1
  0.2, -2.8, 8, -184%, 1.8, 0.78, 2.3
> O=C(Cn1cnc2c(cnn2-c2ccccc2)c1=O)NCc1ccccc1
  -1.0, -0.9, -8, 16%, 1.3, 0.77, 2.2
> CCO[C@H]1OC(C(=O)NCc2ccccc2)=C[C@@H](c2ccc(C(F)(F)F)cc2)[C@@H]1CCCO
  -0.4, -1.9, 2, /, 4.1, /, -1.4
> Cc1ccc(-n2c(=S)[nH]c3sc4c(c3c2=O)CCC4)cc1
  -0.4, 1.2, 0, -29%, 3.8, 0.74, 5.0
> Cc1ccc(C)c2[nH]c(=O)c(C(c3nnnn3C(C)(C)C)N3CC=C(c4ccc(F)cc4)CC3)cc12 (stereo not given)
  /, 3.9, 5, 8%, 1.7, 0.68, /

More entries.
SMILES	A1 inh	HNF4A DNA FP	B2AR ag	Vif A3G	UCH37 DUB inh	Ecoli growth	LANA-H2B inh
CCOC(=O)c1cc(CC)sc1NC(=O)c1cccc(N2C(=O)CCC2=O)c1	1.8	1.7	-2	/	-9.2	0.7	3.9
Cc1ccc(NC(=O)COC(=O)c2ccc(-n3nc(C)cc3C)cc2)c(F)c1	-1.3	-1.9	-11	/	2.7	0.67	-3.4
Nc1ccccc1SC1CC(=O)N(Cc2ccccc2)C1=O (stereo not given)	-0.6	0.7	2	-8%	4.9	0.68	-2.3
Cn1c(=O)oc2cc(S(=O)(=O)NCCC(=O)NCc3ccccc3Cl)ccc21	0.0	-2.2	1	/	2.0	0.62	-5.6
CCOc1ccccc1N=Nc1c(C)[nH]n(C(N)=S)c1=O	0.1	1.3	0	5%	9.0	0.69	1.5
COc1ccc(C2=NOC(Cn3nc(-c4ccccc4)cc3C(=O)NCc3cccs3)C2)cc1 (stereo not given)	-0.3	6.0	1	/	-0.8	0.71	6.9
COc1ccc(NC(=O)Cc2csc(NC(=O)Nc3ccccc3OC)n2)c(OC)c1	-0.1	-2.1	2	-2%	-0.7	0.6	2.9
COc1ccc(NC(=S)c2ccc3ccccc3n2)cc1	-0.1	-2.6	-1	/	/	/	-5.4
Cc1c(C(=O)COC(C)(C)C)[nH]c2ccccc12	-0.1	-1.2	3	0%	5.5	0.69	-0.1
Cc1ccc(S(=O)(=O)N(C)C[C@@H]2Oc3ccc(NC(=O)Nc4cccc5ccccc45)cc3C(=O)N([C@H](C)CO)C[C@H]2C)cc1	0.6	3.5	6	/	/	/	6.7
COc1cccc(-n2c(CN3CCN(Cc4ccccc4)CC3)nc3ccc([N+](=O)[O-])cc3c2=O)c1	-0.6	/	/	0%	4.5	0.71	-1.0
O=C(CCc1ccccc1)Nc1cccc([N+](=O)[O-])c1	-1.0	-0.9	-4	-7%	2.8	0.69	4.7
Cc1ccc(NC(=O)CSC2=NN3CCCC(=O)N=C3S2)c(C)c1	0.2	1.9	-10	?	4.1	0.73	4.1
Cc1cnc(SCc2ccc(Cl)cc2Cl)[nH]c1=O	1.5	0.4	-2	10%	1.9	0.65	-5.2
O=C(NC1CCCCC1)c1ccccc1C(F)(F)F	0.5	-2.5	2	1%	5.0	0.7	-1.2
CCOC(=O)c1sc(NC(=O)c2cc(-c3ccccc3)nc3ccccc23)c(C#N)c1C	0.9	3.7	39	4%	5.5	0.8	3.8
CNCC[C@@H](Oc1ccccc1C)c1ccccc1	-0.3	-0.2	0	/	1.4	/	-0.6
CCC(C)CCN1C(N(C)C)=NC[C@@H]1CC(C)C (stereo not given in full)	-0.7	1.0	16	/	2.3	0.7	7.9
CC(=O)c1ccc(N2CCN(C(=O)CCCn3c(=O)[nH]c4ccc(Br)cc4c3=O)CC2)cc1	-0.4	-0.2	14	-7%	-0.1	0.69	0.2
COC(=O)c1cccc([N+](=O)[O-])c1CN1CCCC(C(N)=O)C1 (stereo not given)	-1.5	1.0	6	4%	-1.9	0.66	-8.7
CN1CCN(C(=O)C2CCN(S(=O)(=O)c3ccccc3[N+](=O)[O-])CC2)CC1	1.7	-2.7	2	10%	1.4	0.7	-2.4
Cc1cccc(C(=O)OCC(=O)NCc2ccco2)c1	-1.2	-1.4	10	-7%	0.3	0.67	-3.3
COC(=O)c1ccc(NC(=S)NC(=O)c2cc(-c3ccccc3)nc3ccccc23)cc1	1.1	3.4	-2	-3%	/	/	12
COc1ccc(-c2n[nH]c(=S)nc2-c2ccc(OC)cc2)cc1	0.3	0.1	7	2%	5.8	0.69	6.7
Cc1ccc2c(c1)C1C[N+](C)(CC(=O)Nc3ccccc3Cl)CCC1N2C(=O)c1ccccc1Cl (stereo not given)	-0.9	-3.2	6	-5%	1.6	0.7	5.7
COc1ccc(N2CCN(C(=O)COC(=O)c3ccco3)CC2)cc1	-1.2	6.2	-9	/	1.4	0.67	-0.8
O=C(Nc1ccc(Cl)cc1C(F)(F)F)C(Sc1cccc[n+]1[O-])c1ccccc1 (stereo not given)	-0.6	-2.0	4	-5%	1.3	0.7	3.2
CCOc1ccc(CCNC(=O)COC(=O)c2cccc(N(C)C)c2)cc1OCC	-1.1	-0.5	0	2%	-8.2	0.64	-1.6
S=c1[nH]c2ccc(Cc3ccc4[nH]c(=S)[nH]c4c3)cc2[nH]1	0.4	1.9	-4	-5%	3.8	0.76	3.9
COc1ccccc1N(CC(=O)N/N=C(\C)c1cccc(Br)c1)S(C)(=O)=O	-0.1	2.6	-1	2%	/	/	-0.1
CCCC(CC)Sc1nc2c([nH]1)c(=S)n(C)c(=O)n2C (stereo not given)	/	1.9	0	-17%	/	/	/
Cc1cc(C)c2sc(N)nc2c1	-0.1	-4.4	-2	2%	3.9	0.64	1.4
